# Vaccinia mCherry = vaccinia inhibition (mCherry reporter); Vaccinia virus mCherry reporter infection, fluorescence; about a quarter of the inactives have no number; Potency, µM (highest dose often 36.5 µM), for the others: at the top dose activity change, negative = inhibition, actives largely listed as inhibitors; hit rate 0.63% among 310,000; AID 720579; active = well fitted inhibition curve with a large enough effect; inconclusive = small, poorly fitted or top-dose-only effect; inactive = no such curve, though single readings can be large or run the other way; tested in A549 cells; further: nearly all actives have a fitted effect of over 35% in size; inactives centre near -10
# VACV Venus inh = vaccinia inhibition (Venus reporter) | hit rate 0.46% among 330,000 | Potency, µM (top dose mostly 36.5 µM), inactives show at the highest dose activity change, negative = inhibition, hits mostly inhibitors | AID 720580 | Vaccinia virus Venus reporter expression, fluorescence; active means well fitted inhibition curve with a large enough effect; inconclusive means small, poorly fitted or top-dose-only effect; inactive means no such curve, though single readings can be large or run the other way; tested in A549 cells; further: nearly all actives have a fitted effect of over 30% in size; inactives centre near -10
# * hit, by the source's call; i = inactive; ? = inconclusive; nt = no result given; & = joins results of further samples; [ ] = remark or other dose. On the % scale 0 is the no-effect control and ±100 the full control effect; potency means the concentration at half of the fitted maximal effect.
# Start of the data: the first seven compounds as a preview:
# Results follow in this order: Vaccinia mCherry | VACV Venus inh
O=C(O)c1ccc(NC(CSCc2ccccc2F)C(=O)O)c([N+](=O)[O-])c1 (configuration not stated)
→ i | 6%
CC(C)C[C@@H](CN)NC(=O)c1nc[nH]c1C(=O)N[C@@H](CC(C)C)C(=O)CNC[C@H](C)NC(=O)c1nc[nH]c1C(=O)N[C@@H](C)C(=O)O
→ i | 4%
COc1ccc(OC)c(NC(=O)Cn2c(=O)n(-c3cccc(C)c3)c(=O)c3c2c2cc(C)ccc2n3C)c1
→ -7% | -12%
COc1ccc(/C=C2\SC(=O)N(CCCC(=O)Nc3ccc(C(=O)O)cc3)C2=O)cc1
→ -29% | -15%
Cc1cc(C)cc(-n2ccn(CC(=O)NCCc3ccccc3)c(=O)c2=O)c1
→ -7%&-7% | -7%&-5%
O=C(COc1ccccc1[N+](=O)[O-])N/N=C/c1ccc(O)c([N+](=O)[O-])c1
→ i | 6%
Cn1nccc1-c1cc(Cl)cc(Cl)c1O
→ -6% | -11%

# The list itself, repeating the preview:
# Results follow in this order: Vaccinia mCherry | VACV Venus inh
O=C(O)c1ccc(NC(CSCc2ccccc2F)C(=O)O)c([N+](=O)[O-])c1 (configuration not stated)
→ i | 6%
CC(C)C[C@@H](CN)NC(=O)c1nc[nH]c1C(=O)N[C@@H](CC(C)C)C(=O)CNC[C@H](C)NC(=O)c1nc[nH]c1C(=O)N[C@@H](C)C(=O)O
→ i | 4%
COc1ccc(OC)c(NC(=O)Cn2c(=O)n(-c3cccc(C)c3)c(=O)c3c2c2cc(C)ccc2n3C)c1
→ -7% | -12%
COc1ccc(/C=C2\SC(=O)N(CCCC(=O)Nc3ccc(C(=O)O)cc3)C2=O)cc1
→ -29% | -15%
Cc1cc(C)cc(-n2ccn(CC(=O)NCCc3ccccc3)c(=O)c2=O)c1
→ -7%&-7% | -7%&-5%
O=C(COc1ccccc1[N+](=O)[O-])N/N=C/c1ccc(O)c([N+](=O)[O-])c1
→ i | 6%
Cn1nccc1-c1cc(Cl)cc(Cl)c1O
→ -6% | -11%
Cc1ccnc(SCc2cc(=O)c(OC(=O)c3ccc(Cl)c([N+](=O)[O-])c3)co2)n1
→ -14% | -14%
O=C(O)c1sc2ncccc2c1OCc1ccccc1
→ i | -8%
CCN(CC(=O)Nc1cc(Cl)ccc1C)C(=O)Cn1c(=O)cnc2ccccc21
→ i | -21%
CCCCCSc1nnc2c(n1)OC(CC)Nc1ccc(Br)cc1-2 (configuration not stated)
→ 0% | 4%
CCN(CC(=O)NC(C)C)C(=O)c1cc(S(=O)(=O)N2CCCCC2)ccc1N1CCCCC1
→ -20% | 4%
COC(=O)COc1ccc(S(=O)(=O)NCc2ccco2)cc1
→ i | -12%
CCOC(=O)CCn1nc(C)c2c(C)n(-c3ccccc3)nc2c1=O
→ -6% | -5%
BrC(=C\c1ccccc1)/C=N/n1cnnc1
→ ? | ?
CNc1nc(NCc2ccccc2)c2sccc2n1
→ 7% | -11%
O=C(NNC(=O)c1ccccc1OCc1ccc(F)cc1)c1ccccc1O
→ ? | ?
O=C(c1ccco1)N1CCN(c2nc3ccccc3n3nnnc23)CC1
→ nt | -10%
COc1ccc(Nc2ncnc3c2cnn3Cc2ccccc2)cc1
→ -35% | -24%
CC(=O)c1ccc(OC(=O)c2ccc(-n3nc(C)cc3C)cc2)cc1
→ -1% | -1%
Cc1cc(NC(=O)Nc2cccc(Cl)c2)n(-c2ccccc2)n1
→ i | -8%
COCCOc1ccc(C(F)(F)F)cc1NC(=O)COC(=O)c1cc([N+](=O)[O-])ccc1N1CCOCC1
→ -15% | -26%
Cc1ccc(-n2nc(C(=O)Nc3ccc(Cl)cn3)c3c4ccccc4n(C)c3c2=O)cc1
→ 1% | 2%
CC(=O)OC1C(=O)[C@]2(C)C(O)CC3OC[C@]3(OC(C)=O)C2[C@@H](OC(=O)c2ccccc2)[C@]2(O)CC(O)C(C)=C1C2(C)C (some centres not stated)
→ ? | 1%
C[C@@H]1CN([C@@H](C)CO)C(=O)c2cc(C#CC3CCCCC3)cnc2O[C@@H]1CN(C)S(=O)(=O)c1ccc(F)cc1
→ ? | ?
Cc1cc(C)cc(NC(=O)CSc2oc(-c3cccs3)nc2S(=O)(=O)c2ccc(Br)cc2)c1
→ ? | ?
CCN(CC)CCN(C)C(c1ccnc2ccccc12)c1nnnn1-c1ccc2c(c1)OCCO2 (configuration not stated)
→ -11% | 0%
CCn1c(O)c(N=NC(=O)c2cccs2)c2ccccc21
→ -22% | -9%
Cc1ccc(S(=O)(=O)N2CCN(C(=O)C3CCN(C(=O)c4ccc(F)cc4)CC3)CC2)c(C)c1
→ i | -26%
CC(=O)C1(c2ccccc2)CCN(C(=O)C2CCC(=O)N(CCc3cccc(F)c3)C2)CC1 (configuration not stated)
→ -15% | -6%
COC(=O)c1ccc(OC)c(-c2c(OC)cc(OC)cc2OC)c1
→ -18% | -16%
O=C(CSc1nn(-c2ccc(F)cc2)c(=S)s1)NC(=O)NCc1ccco1
→ -20% | -14%
Clc1ccc(SCCCCN2CCOCC2)cc1
→ i | -11%
COc1cccc(NC(=O)COC(=O)Cc2ccccc2[N+](=O)[O-])c1
→ i | -4%
Cc1ccc(S(=O)(=O)NCCC(=O)NC2CCCCC2)cc1
→ i | -10%
c1ccc2[nH]c(N3CCOCC3)nc2c1
→ nt | -5%
Cc1nc2ccccc2c(=O)n1-c1ccc(F)c(NS(=O)(=O)c2ccccc2F)c1
→ 1% | 8%
COc1ccc(/C=C/CN2CCC(Oc3ccc(C(=O)N4CCCCC4)cc3)CC2)cc1
→ -15% | -27%
CC[N+](C)(CC)CCCOC(=O)C(O)(c1ccccc1)C1CCCCC1 (configuration not stated)
→ nt | -14%
O=C(Cc1ccc(NC(=O)C2CCN(C(=O)C3CCCC3)CC2)cc1)Nc1cccc(C(=O)N2CCCCC2)c1
→ -10% | -12%

# Pulled one by one from the list above:
# Results follow in this order: Vaccinia mCherry | VACV Venus inh
O=C(Cc1ccc(NC(=O)C2CCN(C(=O)C3CCCC3)CC2)cc1)Nc1cccc(C(=O)N2CCCCC2)c1
→ -10% | -12%
Cc1cc(C)cc(NC(=O)CSc2oc(-c3cccs3)nc2S(=O)(=O)c2ccc(Br)cc2)c1
→ ? | ?

# Continued.
# Results follow in this order: Vaccinia mCherry | VACV Venus inh
COc1ccc(C)cc1S(=O)(=O)N1CCC(C(=O)N2CCN(C)CC2)CC1
→ -16% | -11%
COc1cc(NC(=O)COC(=O)/C=C/c2c(C)nn(C3CCS(=O)(=O)C3)c2Cl)cc(OC)c1OC (configuration not stated)
→ nt | -15%
Cc1ccc(C(NC(=O)Nc2ccccn2)C(Cl)(Cl)Cl)cc1F (configuration not stated)
→ -15% | 1%
COc1ccc2c(=O)c(C(=O)O)c(-c3ccc4c(c3)OCO4)n(C)c2c1
→ i | -15%
Cc1csc(NC(=O)c2ccc(C)c([N+](=O)[O-])c2)n1
→ ? | -23%
Cc1ccc(S(=O)(=O)c2nc(-c3ccco3)oc2SCc2ccc(F)cc2)cc1
→ -23% | -18%
COC(=O)C(CCSC)NC(=O)Cn1ncc2c([nH]c3ccccc32)c1=O (configuration not stated)
→ -3% | -5%
O=c1c2cc(F)ccc2sn1-c1ccc(F)cc1
→ -23% | -28%
COc1ccc(C2=NOC(Cn3nc(-c4ccccc4)cc3C(=O)NCc3cccc(Br)c3)C2)cc1 (configuration not stated)
→ i | -5%
CCNC(=S)NCc1ccc(OC)c(OC)c1
→ -3% | -6%
CC(C)CN(C(=O)CN1C(=O)NC(c2ccccc2)(c2ccccc2)C1=O)C1CCS(=O)(=O)C1 (configuration not stated)
→ -17% | -13%
CC1Sc2ccc(S(=O)(=O)CCC(=O)N3CCCC3)cc2NC1=O (configuration not stated)
→ -10% | 6%
CCC1(c2ccccc2)NC(=O)N(CC(=O)NNC(=O)c2ccc(F)cc2)C1=O (configuration not stated)
→ -12% | -1%
C[C@H](CO)N1C[C@H](C)[C@@H](CN(C)Cc2ccc(Cl)c(Cl)c2)Oc2c(NC(=O)C3CCOCC3)cccc2C1=O
→ i | -7%
CC(C)CC(O)(c1ccccc1)C(CN1CCOCC1)c1ccccc1 (configuration not stated)
→ -23% | -16%
O=C(Cn1nc(-c2ccccc2)nc1-c1ccccc1)OC1CCCCC1
→ -8% | -14%
CCOc1ccccc1NC(=O)C1CCN(S(=O)(=O)c2cccc3nonc23)CC1
→ 10% | 0%
CC(=O)Nc1nnc(SCC(=O)NC2CC2)s1
→ 9% | -10%
O=C(/C=C/c1ccccc1)CC(=O)c1ccccc1
→ -19% | -9%
Cc1nn(-c2ccccc2)nc1CNS(C)(=O)=O
→ -7% | 1%

# One compound at a time (already shown):
# COC(=O)C(CCSC)NC(=O)Cn1ncc2c([nH]c3ccccc32)c1=O (configuration not stated) reads Vaccinia mCherry: -3%; VACV Venus inh: -5%
# Cc1csc(NC(=O)c2ccc(C)c([N+](=O)[O-])c2)n1 reads Vaccinia mCherry: ?; VACV Venus inh: -23%

# (list continues)
# Results follow in this order: Vaccinia mCherry | VACV Venus inh
COc1ccc2[nH]cc(CCNc3cc(-c4ccoc4)ncn3)c2c1
→ -9% | -6%
CCOCCN1CCN(C2c3ccccc3CSc3ccccc32)CC1 (configuration not stated)
→ -22% | -16%
CCN(CC(=O)Nc1ccccc1C(F)(F)F)C(=O)CSCc1c(C)noc1C
→ -2% | -18%
COc1ccc(NC(=O)C2CCN(Cc3cnn(-c4ccccc4)c3-n3cccc3)CC2)cc1OC
→ -13% | -29%
CCSCCOC(=O)C1=C(C)NC(=O)NC1c1ccccc1 (configuration not stated)
→ -10% | -14%
O=C1CCC(C(=O)Nc2ccc(Cl)cc2)N1 (configuration not stated)
→ -20% | 1%
CN1CCn2cnc(C(=O)N3CCN(c4ccccc4)CC3)c2C1=O
→ i | -8%
Cc1nc2cc(-c3ccc(Cl)cc3)nn2c(C)c1CCC(=O)N1CCC2(CC1)OCCO2
→ -10% | -9%
COc1nc(N(C)C)nc(-n2nnc(C(C)=O)c2C)n1
→ -11% | -6%
Cc1ccc(S(=O)(=O)Nc2cc(C(=O)N3CCOCC3)ccc2N2CCCCC2)cc1
→ nt | -18%
COc1ccc(OCCCC(=O)OC(C)C(=O)Nc2cccc(C(C)=O)c2)cc1 (configuration not stated)
→ -16% | -14%
O=C(COC(=O)/C=C/c1cccc(F)c1)NC(=O)NC1CCCC1
→ -13% | -16%
COc1ccc(CN(CCC#N)C(=S)NC(=O)c2ccccc2)cc1
→ nt | -22%
Cc1ccc(C2=NC(C)(C)N3C2C3c2ccc([N+](=O)[O-])cc2)cc1 (configuration not stated)
→ -14% | 5%
O=C(NCCC1=CCCCC1)C1CCN(C(=O)c2ccc(Cl)cc2)CC1
→ -21% | -15%
Cc1ccc(-n2c3nc(=O)[nH]c(=O)c-3cc3c(Cl)cccc32)cc1
→ -12% | -3%
O=C(CCc1nc2sc3c(c2c(=O)[nH]1)CCCC3)N1CCN(c2ccccc2)CC1
→ -26% | 2%
COC(CNS(=O)(=O)c1cc2c3c(c1)CCN3C(=O)CC2)OC
→ i | -11%
CCC(C(=O)NCCc1cc(OC)ccc1OC)n1nc(C)c2sc3ccccc3c2c1=O (configuration not stated)
→ -17% | ?
Cc1ccc(S(=O)(=O)N2C3CCCCC3O[C@H]2CC(=O)c2ccc(F)cc2)cc1 (some centres not stated)
→ ? | -1%
Cc1ccc(Cl)cc1NC(=S)N/N=C/c1cccc2ccccc12
→ -18%[7.34 µM] | -26%[7.34 µM]
C#CCNc1nc(C(C)C)nc2c1nnn2Cc1ccccc1F
→ -23% | -21%
CN1CCN(C2(CNC(=O)c3ccc(C(C)(C)C)cc3)CCCCC2)CC1
→ i | -23%
CC1(Cc2ccc(Cl)c(Cl)c2)C(=O)Nc2c(Cl)ccc(Cl)c21 (configuration not stated)
→ 4% | 16%
CS(=O)(=O)N(CCc1ccccc1)CC(=O)Nc1ccc(OCc2ccccc2)cc1
→ nt | 22%
Nc1ccc2nc3n(c(=O)c2c1)CCC3
→ -4% | -8%
CC(CC(=O)Nc1ccc(C(N)=O)cc1)c1ccccc1 (configuration not stated)
→ -18% | -12%
COC(=O)c1ccc2c(=O)n(CC3CCCO3)c(SCC(=O)Nc3ccccc3OC)nc2c1 (configuration not stated)
→ i | -1%
C#CCOCCOCCOCCNc1nc(N2CCOCC2)nc(N2CCN(C(=O)[C@H](Cc3ccc(O)cc3)n3cc([C@@H](N)CC(C)C)nn3)CC2)n1
→ -24% | 0%
Cc1cc(C(=O)CSc2nnc(C3COc4ccccc4O3)n2C)c(C)n1-c1ccc(F)cc1 (configuration not stated)
→ -12% | -13%
CCN(CC)C(=O)CP(=O)(c1ccccc1)c1ccccc1
→ nt | ?
Cn1c(C(C#N)C(=O)c2ccco2)nc2ccccc21 (configuration not stated)
→ nt | -26%
FC(F)(F)c1cc(-c2ccco2)nc(NCc2cccnc2)n1
→ -20% | -28%
Cc1c(C(=O)Nc2ccccc2)sc2nc(-c3cc4cc(Cl)ccc4oc3=O)[nH]c(=O)c12
→ -10% | 15%
O=C(NCc1cccc(F)c1)c1noc2c1CCCC2
→ i | -16%
O=C(CSc1nnc2ccccn12)NC(=O)Cc1ccccc1
→ i | -8%
Cc1nccc(-c2ccc3c(c2)OCO3)n1
→ i | 1%
CC(C)n1c(SCC(N)=O)nc2c1c(=O)[nH]c(=O)n2C
→ -12% | -6%
Cn1ccnc1SCc1cccc([N+](=O)[O-])c1
→ -10% | -10%
CCOC(=O)c1c(NC(=O)CSc2nnc(CNc3ccc(C)cc3C)o2)sc(C)c1C
→ -9%[1.46 µM] | ?
Clc1ccc(Sc2cc(N3CCOCC3)nc(-c3ccccc3)n2)cc1
→ nt | -5%
CC(C)NC(=O)CN1CCN(C(=O)c2ccc3oc(CCCc4ccccc4)nc3c2)CC1
→ -8% | -20%
Clc1ccc(SCc2cn3ccsc3n2)cc1
→ 0% | -12%

# Source: PubChem (National Center for Advancing Translational Sciences (NCATS))
